Screens from PubChem.
Sfp inh – qHTS Assay for Inhibitors of Bacillus subtilis Sfp phosphopantetheinyl transferase (PPTase); 4'-phosphopantetheinyl transferase ffp (Bacillus subtilis), Q9F4F7; Biochemical Sfp PPTase activity, qHTS; Potency, µM, inactives show max response, negative = inhibition, actives largely listed as inhibitors; 310,000 compounds, 3.5% hits; active means well fitted inhibition curve with a large enough effect; inconclusive means small, poorly fitted or top-dose-only effect, or another doubt; inactive means no such curve, though single readings can be large or run the other way;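 further: the enzyme is Sfp with the accession as filed and its product quenches rhodamine fluorescence; potency means the concentration at half of the fitted maximal effect; 0% = enzyme reaction without inhibitor and -100% = no enzyme wells; top concentration of the series not given in the record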
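Fluorescence-quenching assay with 15 nM Sfp, 5 uM rhodamine-CoA and 12.5 uM BHQ-2-labelled ybbR peptide in pH 7.6 Hepes/MgCl2 buffer. Enzyme was pre-incubated with compound for 15 min at room temperature. Rate was taken from the 30-min fluorescence change (525/598 nm).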
TRPML1 inh – qHTS for Inhibitors of the Human Mucolipin Transient Receptor Potential 1 (TRPML1). Mucolipin-1 (Homo sapiens), Q9GZU1. 390,000 compounds, 0.02% hits. TRPML1-inducible cells, Ca2+ dye fluorescence, FDSS; active compounds read low; inhibition of EC80 agonist-evoked calcium signal. activity change, negative = inhibition, % (concentration not given with the values); in the data active means activity change below about -50%; inconclusive means about -30% to -50%; inactive means above about -30%;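 further: stimulus is agonist 54-4 at its EC80 concentration; on the % scale 0 is the no-effect control and ±100 the full control effect; the text of the record puts the active cut at -80%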
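Tet-induced TRPML1-DL cells loaded with Ca8 no-wash calcium dye were read kinetically on FDSS. Compound addition was followed by EC80 agonist 54-4 (4 uM final); inhibition was read over 110 s.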
TRPV1 potentiator – HTS Assay for Compounds that Act as Potentiators of the Vanilloid Receptor 1 | potentiation, % at 8.33 µM | 320,000 compounds, 0.02% hits | AID 540277, 2011 | Transient receptor potential cation channel subfamily V member 1 (Homo sapiens), Q8NER1 | TRPV1-expressing cells, Fluo-8 calcium influx, capsaicin EC20 potentiation; host cell line not named in the record; control for the full effect not named in the record; active means potentiation above 80%; inconclusive means 30% to 80%; inactive means below 30%; further: 0% is about no effect
Target sequence (Q8NER1 whole entry, looked up): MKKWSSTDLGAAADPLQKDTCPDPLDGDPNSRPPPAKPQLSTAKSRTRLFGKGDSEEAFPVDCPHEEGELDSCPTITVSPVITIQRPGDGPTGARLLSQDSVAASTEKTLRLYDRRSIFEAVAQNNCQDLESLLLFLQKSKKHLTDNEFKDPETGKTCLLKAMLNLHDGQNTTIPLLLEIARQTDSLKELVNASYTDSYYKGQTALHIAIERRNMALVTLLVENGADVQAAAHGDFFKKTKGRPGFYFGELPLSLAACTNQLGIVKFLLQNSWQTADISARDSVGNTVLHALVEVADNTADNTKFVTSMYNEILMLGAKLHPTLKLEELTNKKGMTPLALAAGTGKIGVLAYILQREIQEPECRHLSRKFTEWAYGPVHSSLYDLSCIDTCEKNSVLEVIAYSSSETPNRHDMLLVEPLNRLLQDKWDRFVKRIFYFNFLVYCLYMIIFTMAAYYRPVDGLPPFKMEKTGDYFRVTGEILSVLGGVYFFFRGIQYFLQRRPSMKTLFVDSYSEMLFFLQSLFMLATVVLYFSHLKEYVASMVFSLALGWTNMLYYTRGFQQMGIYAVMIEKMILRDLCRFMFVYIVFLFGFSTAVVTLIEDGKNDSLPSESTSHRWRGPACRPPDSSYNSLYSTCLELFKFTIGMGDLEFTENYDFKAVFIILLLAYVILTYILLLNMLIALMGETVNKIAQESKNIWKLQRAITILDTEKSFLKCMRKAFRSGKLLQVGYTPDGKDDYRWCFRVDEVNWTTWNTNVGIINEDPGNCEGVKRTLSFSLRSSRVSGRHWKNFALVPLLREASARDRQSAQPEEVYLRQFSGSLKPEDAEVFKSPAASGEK
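Cells expressing TRPV1 were dye-loaded with Fluo-8 and read kinetically: 10 s baseline, 3 min after compound (agonist portion), then 2 min after EC20 capsaicin (allosteric enhancer portion). Calcium-bound dye fluorescence at 480/520 nm.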
gsp agonist – qHTS for Agonist of gsp, the Etiologic Mutation Responsible for Fibrous Dysplasia/McCune-Albright Syndrome: qHTS; gsp mutant cells, cAMP HTRF, 30 min; control for the full effect not named in the record; Potency, µM (doses to about 76.9 µM), inactives show at the highest dose activation (cAMP increase), most hits filed as activators; 340,000 compounds, 0.13% hits; AID 624287, 2012; active = well fitted activation curve with a large enough effect; inconclusive = small, poorly fitted or top-dose-only effect, or another doubt; inactive = no such curve, though single readings can be large or run the other way; cell line not stated here;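 further: phosphodiesterase inhibitor Ro 20-1724 added with compounds to block cAMP breakdown; potency means the concentration at half of the fitted maximal effect; nearly all actives have a fitted effect of over 60% in size; about a fifth of the inactives were tested at one dose only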
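Cells stably selected in G418 were plated at 2000/well, grown 16-24 hr, then given compounds in DMSO with the PDE inhibitor […] (300 uM solution added) for 30 min at 37C; cAMP was read by HTRF.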
gsp antag – qHTS for Antagonists of gsp, the Etiologic Mutation Responsible for Fibrous Dysplasia/McCune-Albright Syndrome: qHTS; gsp-mutant cells, cAMP HTRF, 30 min; control for the full effect not named in the record; Potency, µM (top dose mostly 76.9 µM), for inactives: at the highest dose activity change, negative = inhibition, usual class: inhibitors; 340,000 compounds, 0.4% hits; AID 624288, 2012; active = falling curve of any shape with a large fitted effect; inconclusive = falling curve, mostly with a smaller effect; inactive = flat or rising curve; cell line not stated here;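 further: intracellular cAMP measured with PDE inhibitor Ro 20-1724 present during compound exposure; potency means the concentration at half of the fitted maximal effect; on the % scale 0 is the no-effect control and ±100 the full control effect; nearly all actives have a fitted effect of over 65% in size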
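Measurement of cellular cAMP by homogeneous time-resolved fluorescence following a 30 min compound exposure at 37C. The PDE inhibitor […] was present throughout; the assay buffer was DPBS with 0.05% BSA and 0.005% Tween 20.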
ClpP mod – qHTS Assay for Activators of ClpP; ATP-dependent Clp protease proteolytic subunit (Bacillus subtilis (strain 168)), P80244; purified B. subtilis ClpP, FRET peptide cleavage, 20 min; Potency, µM (highest dose often 57.5 µM), inactives show top-dose activity change, negative = active; 340,000 compounds, 1.9% hits; AID 651965, 2013; active = well fitted falling curve with a large enough effect; inconclusive = small, poorly fitted or top-dose-only effect; inactive = no such curve, though single readings can be large or run the other way; further: potency means the concentration at half of the fitted maximal effect; the source files actives as falling curves though it sought activators and does not explain the sign; nearly all actives have a fitted effect of over 65% in size; many hits overshoot -100%
Target sequence (P80244 whole entry, looked up): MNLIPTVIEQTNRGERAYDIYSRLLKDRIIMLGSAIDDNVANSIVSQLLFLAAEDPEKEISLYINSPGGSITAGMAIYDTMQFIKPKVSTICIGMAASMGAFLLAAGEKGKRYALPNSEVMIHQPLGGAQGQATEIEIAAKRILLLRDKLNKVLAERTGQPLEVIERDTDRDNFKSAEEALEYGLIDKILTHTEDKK
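ClpP 10 microg/mL final, pH 8 Tris/KCl buffer with BSA, glycerol, Tween-20; compound pinned in; FRET-FV substrate; RT 20 min; Ex320/Em430; ΔFRET vs ADEP 5.8 microM, DMSO, no enzyme.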
Menin-MLL FL inh – qHTS Assay for Inhibitors Targeting the Menin-MLL Interaction in MLL Related Leukemias: Competition With Fluorescein Labeled MLL-derived Peptide. 290,000 tested, under 10 active. FP activity change, % at 61.4 µM. Fluorescence polarization, fluorescein-MLL peptide displacement from menin; inconclusive = falling polarisation curve, or a change in total fluorescence; inactive = total fluorescence flat and polarisation flat or rising; no compound was filed as active; the % refers to the polarisation; negative = inhibition;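 further: % of control where 0% means no effect; inhibitors lower the polarisation; unlabelled MLL peptide was the positive control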
Numbers without * were called inactive; u = inconclusive; x = not tested or not shown; & = joins results of further samples; [ ] = another dose, or the depositor's remark.

SMILES	Sfp inh	TRPML1 inh	TRPV1 potentiator	gsp agonist	gsp antag	ClpP mod	Menin-MLL FL inh
CC[C@]12c3[nH]c4ccc(Cl)cc4c3CCN1C(=O)[C@@H](CC(=O)NCCc1ccccn1)C[C@@H]2C(=O)N1CCN(C(=O)c2ccco2)CC1	x	-5	x	x	2%	-3.0%	x
C=CCn1c(N)c(C(=O)NCC2CCCO2)sc1=S (centres undefined)	17%	8	-1	1%	1%	0.1%	2.2
CCNC(=O)N(C)C[C@H]1N[C@@](Cc2ccccc2)(C(=O)OC)[C@H]2C(=O)N(C)C(=O)[C@@H]12	x	-8	x	x	4%	-3.7%	x
COc1ccccc1CCn1cnc2c3cc(C)ccc3n(C)c2c1=O	-17%	-5	-13	-2%	u	35µM*	0.6
Cc1ccc(C)c(C(=O)Cn2ncc(Cl)c(Cl)c2=O)c1	-8%	1	-9	-5%	2%	-1.7%	0.0
COc1ccc(NC(=O)CSc2sc3c(O)cc(=O)[nH]c3c2C#N)c(OC)c1	u	-5	-1	-27%	-2%	x	18
CC(CCc1ccccc1)NC(=O)COc1cc(F)ccc1[N+](=O)[O-] (centres undefined)	3%	-11	-5	-15%[15.4 µM]	1%	x	3.8
O=C(Nc1ccccc1)N1CCN(C(=O)Nc2ccccc2)CC1	20%	x	-2	x	x	x	0.9
CC1S/C(=N\N=C\c2cccc([N+](=O)[O-])c2)N(C(C)(C)C)C1=O (centres undefined)	-14%	23	-2	-3%[15.4 µM]	-10%	x	-1.4
CCOc1ccc(CCNC(=O)Cn2ncn3nc(-c4ccc(OC)cc4)cc3c2=O)cc1OCC	1%	-9	1	5%	7%	-2.9%	-1.6
CN(C)c1ccc(C=NCCC2(c3ccccc3)CCOC(C)(C)C2)cc1 (centres undefined)	11%	9	-15	-11%[15.4 µM]	2%	x	23
COc1ccc(OC)c(NC(=O)NNC(=O)COc2ccc(-c3ccccc3)cc2)c1	22%	12	5	7%	-18%	3.5%	x
COc1ccc(C(=NNc2ccccc2C(=O)O)c2ccc(OC)cc2)cc1	6%	7	-4	-20%	u	-0.7%	x
CCCc1cc2c(cc1NC(=O)c1ccc(C(C)(C)C)cc1)OCO2	5%	25	-8	-4%[15.4 µM]	-24%	-2.5%	7.7
CCc1cc(C(=O)Nc2nnc(C3CC3)s2)sc1C	x	56	-14	-11%	-15%	-2.4%	x
COc1ccc(C(=O)NC2CCN(C(=S)Nc3cc(C)cc(C)c3)CC2)cc1	0%	3	3	u	7%	-2.0%	-0.1
Cc1ccc(S(=O)(=O)NC(CC(=O)NC2CCCC2)c2ccco2)cc1 (centres undefined)	u	-16	-3	21%	-14%	28µM*	0.3
Cc1[nH]c(=O)[nH]c(=O)c1S(=O)(=O)N1CCCC(C(=O)NCCc2ccc(Cl)cc2)C1 (centres undefined)	15%	17	-35	-49%[inhibitor]	2%	-2.3%	-1.2
Cc1ccc(OC(=O)c2ccc3c(=O)n4c(nc3c2)CCC4)cc1	x	10	4	24%	-11%	-4.5%	x
COc1cccc(C(=O)Oc2cc(-c3ccccc3)no2)c1	-24%	-8	u	-24%	-3%	1.3%	2.1
O=C(Nc1ccc(Nc2ccncc2)cc1)c1ccc(Nc2ccnc3ccc([N+](=O)[O-])cc23)cc1	9%	13	u	-6%[15.4 µM]	12%	-0.4%	5.0
CN(CC(=O)Nc1ccc(Cl)c(Cl)c1)C(=O)CNC(=O)Cc1ccccc1	x	-12	21	2%	-2%	-7.4%	x
Cc1nnc(SC(C)C(=O)N(C)C2CCCCC2)n1N (centres undefined)	x	-2	6	u	10%	-1.6%	x
O=C(CCN1C(=O)C2C3CCC(C3)C2C1=O)Nc1ccc(Br)cc1 (centres undefined)	3%	16	-12	-17%	8%	0.4%	7.1
CCc1nnc(NC(=O)CSC(=S)N2CCOCC2)s1	6%	7	5	u	4%	2.0%	0.1
CCc1c(C)nc2ncnn2c1N1CCC(C(=O)Nc2cccc(C(C)=O)c2)CC1	9%	23	0	u	-17%	-0.1%	-1.3
CCC(=O)N1c2ccc(S(=O)(=O)NCCc3ccc(OC)c(OC)c3)cc2CC1C (centres undefined)	16%	8	-27	28%	-3%	-2.6%	x
Cc1cccc(C(=O)NCCC(=O)N2CCc3ccccc3C2)c1	x	-6	16	u	0%	-0.4%	x
CCOC(=O)N1CCC(NS(=O)(=O)c2ccc(C#N)cc2)CC1	12%	28	-20	7%[15.4 µM]	6%	-4.0%	-7.9
Cc1nn(CC#N)c(=O)n1-c1ccc(C(C)C)cc1	4%	-1	-8	4%[15.4 µM]	8%	x	-1.1
CCCC(=O)NCCCc1nc2ccccc2n1CC	13%	-7	6	-23%	9%	-0.3%	-1.0
CCN(CC)S(=O)(=O)c1ccc(N2CCCCC2)c(NC(=O)c2ccncc2)c1	7%	31	-21	38%[15.4 µM]	2%	0.4%	0.1
CCOC(=O)[C@H]1[C@H]2COc3ccc(C)cc3[C@@H]2N2C(=O)[C@@H](CO)NC(=O)[C@@]12C	x	-11	-5	x	7%	-2.2%	x
CC(C(=O)N1CCCC1)N1CCN(S(=O)(=O)c2ccc(C(C)(C)C)cc2)CC1 (centres undefined)	x	17	3	-2%	2%	-1.4%	x
CN(C)c1nc(-c2ccccc2)nnc1C(F)(F)F	16%	10	-8	-7%	-7%	-1.2%	-0.3
CC(CCC(=O)Nc1nncs1)C(=O)O (centres undefined)	13%	-8	16	-34%	8%	-0.7%	-2.7
Nc1ccc(C(=O)OCC(=O)N2CCN(C(=O)c3ccco3)CC2)cc1[N+](=O)[O-]	5%	52	-1	u	1%	-3.7%	7.6
CCc1ccc(NC(=O)NCCN2CCN(c3ccc(OC)cc3)CC2)cc1	2%	-21	u	u	13%	-2.5%	-4.4
COc1ccc(C(=O)NNC(=S)NC(=O)c2ccc(Cl)cc2)cc1	x	14	x	10%	-1%	x	x
COc1ccc(C)cc1N(CC(=O)NC1CCCC1)C(=O)CCC(=O)Nc1nc(C)cs1	-3%	5	10	-4%[15.4 µM]	3%	-0.4%	2.1
Cn1ccsc1=NC(=O)c1ccc(OC(F)(F)F)cc1	12%	6	-9	9%	7%	x	5.4
Cc1ccc(-c2nnn(CC(=O)Nc3cccc4c3CCCC4)n2)o1	-22%	-1	4	-6%	6%	-2.5%	5.5
Cc1ccc2oc(=O)ccc2c1	x	-4	x	x	3%	-7.7%	x
Oc1ccc(-c2nncn2-c2ccccc2)cc1	34%[activator]	-12	-4	-30%	0%	-1.2%	-2.7
S=C(NCc1ccc(Cl)cc1)NC1CCCCC1	0%	3	-1	-5%	1%	-0.5%	3.5
Cc1cccc(NC(=O)CN(CC2CCCO2)C(=O)c2oc3ccc(F)cc3c2C)c1C (centres undefined)	x	-4	-7	16%	u	2.8%	x
CC(=O)Nc1ccc(NC(=O)COc2cc(O)c3c(c2)OC(C)(C)CC3=O)cc1	16%	x	-11	x	-5%	-2.1%	1.6
COC(=O)C[C@H]1c2cc(C(F)(F)F)ccc2S(=O)(=O)N1Cc1ccccc1OC	x	-2	x	2%	3%	-1.1%&-0.7%	x
COc1ccccc1N(CC(O)COc1ccccc1)S(=O)(=O)c1ccccc1 (centres undefined)	18%	38	4	u	-9%	-1.2%	2.0
Cc1cccc(NC(=O)C23CCC(C)(C(=O)O2)C3(C)C)c1 (centres undefined)	24%	-6	1	21%	6%	-1.6%	-5.5
COc1ccccc1-c1ccc([C@@H]2C[C@H]3[C@H](CON3C)CN2C(=O)c2ccc(-c3ccccc3)cc2)cc1	x	58	x	-29%	x	-1.5%	x
CCOC(=O)C1(Cc2cccc(F)c2)CCN(Cc2cn(CC)nc2C)CC1	10%	-6	-7	-20%[15.4 µM]	-4%	x	-4.8
CC(=O)Nc1cccc(S(C)(=O)=O)c1	8%	59	-4	5%[15.4 µM]	-3%	0.8%	5.3
COC(=O)CC1=C(C(=O)OC)[C@@H](c2ccccc2[N+](=O)[O-])C(C#N)=C(N)O1	-2%	20	9	7%[15.4 µM]	-22%	0.9%	0.6
CC(C)CSc1nc2c(c(=O)[nH]c(=O)n2C)n1CC(O)COc1cccc2ccccc12 (centres undefined)	28µM*	8	16	3%	2%	u	2.3
CC(C)(C)c1ccccc1OCCN1CCCC1	-11%	16	3	-19%	7%	0.6%	3.1
O=C(CSc1nc2ccc(S(=O)(=O)N3CCOCC3)cc2[nH]1)N1CCOCC1	6.3µM*	-9	-7	3%	1%	-0.9%	1.0
CC(C)CN(C(=O)CCC(=O)OCC(=O)NCCc1ccccc1)c1c(N)n(CC(C)C)c(=O)[nH]c1=O	10%	-4	5	-2%[15.4 µM]	6%	x	x
C[C@H](CO)N1C[C@H](C)[C@@H](CN(C)C(=O)Nc2ccccc2)Oc2c(NC(=O)Nc3ccc4c(c3)OCO4)cccc2C1=O	x	3	x	3%	-6%	0.1%	x
Cc1cccc(NC(=O)Cn2c(=O)n(CCC(=O)NC3CCCC3)c(=O)c3ccccc32)c1	17%	34	15	19%	10%	-3.0%	0.6
COCCN(CC(=O)NCc1ccc(OC)cc1)C(=O)CCC(=O)Nc1nccs1	18%	-8	-2	17%	2%	-10%	3.7
Cn1cnc2ncnn2c1=S	x	19	x	0%	x	-0.6%	x
COc1ccc(NC2c3ncccc3C(=O)N2Cc2cccs2)cc1 (centres undefined)	u	-6	-31	-57%[inhibitor]	-2%	-1.5%	5.0
